# NPR1 antag: human Npr1 receptor antagonism; P16066; 76,000 compounds, 1.6% hits; Potency, µM (series often up to 46.3 µM), inactives show top-dose activity change, negative = inhibition, hits mostly inhibitors; HEK293 hNpr1 GloSensor cGMP, ANP-stimulated luminescence; active = well fitted inhibition curve with a large enough effect; inconclusive = small, poorly fitted or top-dose-only effect; inactive = no such curve, though single readings can be large or run the other way;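 note: nearly all actives have a fitted effect of over 60% in size; nearly all hits also lower the signal before the agonist is added; a reference antagonist and vehicle were the controls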
# Target sequence (P16066 whole entry, looked up): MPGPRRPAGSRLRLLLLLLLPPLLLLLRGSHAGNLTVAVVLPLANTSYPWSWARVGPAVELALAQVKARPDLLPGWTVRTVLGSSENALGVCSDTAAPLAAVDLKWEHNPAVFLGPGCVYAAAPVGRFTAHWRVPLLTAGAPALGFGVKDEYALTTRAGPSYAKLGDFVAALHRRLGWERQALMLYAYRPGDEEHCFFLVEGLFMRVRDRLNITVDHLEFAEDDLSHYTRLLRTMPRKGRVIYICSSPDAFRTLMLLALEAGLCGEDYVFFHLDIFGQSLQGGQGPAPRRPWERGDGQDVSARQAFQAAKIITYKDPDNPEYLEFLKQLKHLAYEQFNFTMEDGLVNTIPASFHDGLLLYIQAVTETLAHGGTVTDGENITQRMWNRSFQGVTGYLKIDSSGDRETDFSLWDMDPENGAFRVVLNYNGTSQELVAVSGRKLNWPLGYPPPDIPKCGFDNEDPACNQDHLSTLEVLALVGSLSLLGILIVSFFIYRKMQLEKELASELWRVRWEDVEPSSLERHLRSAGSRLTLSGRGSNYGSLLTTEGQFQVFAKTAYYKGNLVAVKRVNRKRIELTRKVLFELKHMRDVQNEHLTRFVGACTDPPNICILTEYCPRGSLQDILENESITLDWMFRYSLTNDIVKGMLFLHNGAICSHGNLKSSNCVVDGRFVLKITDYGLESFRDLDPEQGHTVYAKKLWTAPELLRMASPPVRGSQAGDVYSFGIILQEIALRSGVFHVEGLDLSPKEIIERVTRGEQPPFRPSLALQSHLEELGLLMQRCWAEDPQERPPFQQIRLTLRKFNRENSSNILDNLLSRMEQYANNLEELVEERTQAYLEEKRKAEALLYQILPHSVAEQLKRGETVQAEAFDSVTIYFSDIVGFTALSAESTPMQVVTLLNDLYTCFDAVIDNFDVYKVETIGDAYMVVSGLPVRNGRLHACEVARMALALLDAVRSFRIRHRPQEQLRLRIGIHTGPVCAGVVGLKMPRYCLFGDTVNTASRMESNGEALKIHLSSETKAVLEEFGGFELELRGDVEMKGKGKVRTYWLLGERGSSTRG
#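 Compound pre-incubated 30 min at room temperature on GloSensor-loaded HEK293 cells stably carrying hNpr1 and the pGS-40F cGMP biosensor. Stimulation uses hNppA at 0.1 nM final; luminescence is taken at baseline and 20 min post-agonist.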
# * marks the source's active call; other numbers are inactive results; ? = inconclusive; & = joins results of further samples; [ ] = another dose, or the depositor's remark. % is set by controls: 0 for no effect and ±100 for the full control effect; potency is the fitted concentration of half-maximal effect. A portion of the library; rates above refer to the full screens.
NPR1 antag | Compound
1% | CC[C@H]1CN(S(=O)(=O)c2ccc(OC)cc2)CC[C@H]1CC(=O)NCCN1CCOCC1
-18%[70.6 µM] | CC(=O)N1CCC(NC[C@@H]2C=C(C)[C@H](Cc3nc4ccccc4[nH]3)C[C@H]2C(C)C)CC1
-3% | CS(=O)(=O)c1ccc(CC(=O)N[C@H]2CCOC[C@H]2C2CCOCC2)cc1
0% | CN(C)C[C@@H]1CN(c2ccncn2)C[C@H]1NC(=O)Cc1c(F)cccc1Cl
4% | CCCNC(=O)C1CC(c2ccccc2F)=NO1 (stereo unspecified)
-13% | Cc1ccsc1CN1CCCCCCNC(=O)CC1c1ccccc1 (stereo unspecified)
-5%[70.6 µM] | Cc1noc(C)c1-c1cc2c(cc(C)n2C)c(-c2ccnn2C)n1
1% | Cc1ccc(C(=O)N2C[C@H]3OC(=O)N(CCc4cccc(Cl)c4)[C@H]3C2)cn1
-3% | Cc1nc(NC(=O)C2c3ccccc3C(=O)N(C3CCCC3)C23CCCC3)sc1C (stereo unspecified)
4% | COCC(=O)N(C1CCOCC1)C1CCN(C(=O)c2ccc(F)cc2)CC1
-16% | CC(=O)N1CCN(C[C@@H]2C=C(C)[C@H](Cc3nnc(-c4ccccc4F)o3)C[C@H]2C(C)C)CC1
0% | COc1ccc(C(=O)N2CCC(n3cc(-c4nc(C)no4)nn3)C2)cc1OC (stereo unspecified)
3% | O=C(c1nnn2cc(-c3ccc(F)cc3)[nH]c(=O)c12)N1CCOCC1
11% | Cc1cc(C)n(CCC(=O)NCC23CCC=C2N(CC2CC2)C(=O)CC3)n1 (stereo unspecified)
-17% | O=C(c1ccccc1F)N1CCCC(c2noc(COc3ccccc3F)n2)C1 (stereo unspecified)
-17%[70.6 µM] | COc1cccc(-c2cc(-c3ccc(=O)[nH]c3)c3cncn3c2)c1
2% | Cn1cnc(S(=O)(=O)N2CCCC(C(=O)N3CCc4ccccc43)CCNC(=O)CC2)c1 (stereo unspecified)
-9% | Cc1csc(CN2CCCC(c3n[nH]c(=O)n3-c3ccccc3)C2)n1 (stereo unspecified)
4%[70.6 µM] | O=c1ncn(Cc2ccccc2)c2ccc(-c3cccnc3)nc12
0%[70.6 µM] | CN1Cc2ncnc(NCCCO)c2CN(c2ccccc2)C1=O
-19%[70.6 µM] | CC1(COc2ccccc2)COc2ccc(C(=O)NCCc3ccccn3)cc2N1 (stereo unspecified)
-21%[70.6 µM] | C#CCNC(=O)c1nc(-c2ccc(Cl)cc2)c2cnccn12
8% | O=C(Cn1nc2c(cc1=O)CCCCC2)NCCc1ccc(O)cc1
3% | CCN1c2cc(C(=O)NCc3cccc(F)c3)ccc2C(=O)N2CCCCC21 (stereo unspecified)
-3%[70.6 µM] | CCS(=O)(=O)c1ccc2oc([C@H]3CCN(C4CCCCC4)C3)nc2c1
-4%[70.6 µM] | Cc1ccc(CN2CCOC[C@H]2c2nc(C(C)(C)C)co2)cc1
10% | Cc1cc(CN2CCC([C@@H]3CNC[C@H]3CO)CC2)n(C)n1
-7%&-15% | Cc1noc(C)c1[S+](=O)([O-])N1CCC2(C1)C(=O)N(CCc1ccccc1)c1ccccc12 (stereo unspecified)
-3%[70.6 µM] | CCc1nc2c(c(-c3ccc(O)cc3)n1)CN(Cc1ccccc1)CC2
5% | O=C1NCCOCCN(C(=O)Nc2ccccc2)[C@@H]2CCCC[C@H]12

# Taken from the listing (3 entries):
NPR1 antag | Compound
1% | CC[C@H]1CN(S(=O)(=O)c2ccc(OC)cc2)CC[C@H]1CC(=O)NCCN1CCOCC1
-18%[70.6 µM] | CC(=O)N1CCC(NC[C@@H]2C=C(C)[C@H](Cc3nc4ccccc4[nH]3)C[C@H]2C(C)C)CC1
-3% | CS(=O)(=O)c1ccc(CC(=O)N[C@H]2CCOC[C@H]2C2CCOCC2)cc1

# Following part.
NPR1 antag | Compound
24%[70.6 µM] | COc1ccc(NC(=O)N(C)Cc2cccc(C(F)(F)F)c2)cc1
10% | COc1ccc(-n2nc(C3CCCN(C(=O)Cc4cccc(Cl)c4)C3)[nH]c2=O)cc1 (stereo unspecified)
-24%[70.6 µM] | Cc1cccc(-c2ncc3c(n2)OCCN(c2cccc(C(F)(F)F)c2)C3=O)c1
4% | O=C(C1CCCC1)N1CCC(C(=O)N2CCCC2c2ccccn2)CC1 (stereo unspecified)
-24% | CC1Oc2ccc(NC(=O)Cc3ccc(F)cc3)cc2CN(Cc2ccc(Cl)cc2)C1=O (stereo unspecified)
4% | COc1ccccc1CC(=O)N[C@@H]1CN(c2ncccn2)C[C@H]1CN(C)C
-21% | O=C(c1ccncc1)N1CCC(CCOc2ccc(F)cc2)C1 (stereo unspecified)
-5% | CC(C)NC(=O)N1C[C@@H](Oc2cccnc2)C[C@H]1C(=O)N1CCCC1
-8%[70.6 µM] | O=C1N(Cc2ccccc2F)CCOC12CCN(Cc1ccccc1F)CC2
-7% | c1ccc(-c2noc(-c3cncnc3N3CCSCC3)n2)cc1
-10% | Cc1ccc(OCc2nc(C3CN(C(=O)Cc4ccccc4F)C3)no2)cc1
-14% | O=C(NCCn1cccc1-c1nc(-c2ccccc2)no1)c1ccc(F)c(Cl)c1
-3% | COCCNC(=O)N1CCc2n[nH]c(=O)n2CC1
2% | O=C(c1cc2c(s1)CCC(C(=O)N1CCN(C3CCCCC3)CC1)C2)N1CCCCC1 (stereo unspecified)
0% | COCc1ccc2c(c1)c(OC(C)(C)C(=O)NCCN1CCOCC1)nn2CCC(C)C
-12% | COC[C@@H]1CN(C(=O)Cc2c(C)noc2C)C[C@H]1c1ccncc1
0% | CC(=O)N1CCC(CC(=O)N2CCN(c3cc(-c4ccccc4)[nH]n3)CC2)CC1
13µM* | CCc1cccc(OCC(=O)c2ccc3c(c2)N(CC(=O)N(C)Cc2ccccc2)C(=O)CO3)c1
1%[70.6 µM] | COc1ccc2[nH]c(C[C@@H]3C[C@@H](C(C)C)[C@H](CNC4CCN(C)CC4)C=C3C)nc2n1
-1%[70.6 µM] | Cc1ccc2c(c1)C(C[C@H]1CN(C(=O)NC(C)C)CC[C@H]1CC(=O)O)=NCC2
15% | CN(C(=O)c1ccc2cccc(F)c2n1)C1CCCN(CCCc2ccccc2)C1 (stereo unspecified)
-2% | CN1C(=O)C(c2ccccc2)CC12CCN(C(=O)CO)CC2 (stereo unspecified)
5% | N#Cc1cccc(NC(=O)O[C@@H]2CO[C@H]3[C@@H]2OC[C@@H]3n2nnnc2SC2CCCC2)c1
1% | O=C(NCCN1CCCC1)c1c(OCC2CC2)cc(=O)n2c1CCOCC2
1% | COc1ccc(CC(=O)N2CCc3nc4cc[nH]n4c(=O)c3C2)c(Cl)c1
-1% | O=C(NCC(c1ccccn1)N1CCOCC1)c1cccc(-n2cnnc2)c1 (stereo unspecified)
5% | CCn1cc(S(=O)(=O)N2CC(COC)C3(CCNCC3)C2)cn1 (stereo unspecified)
-3% | CCc1cnc(N)nc1N1CCN(c2cnccn2)CC1
-7% | COCC(=O)Nc1ccc2ncnc(N3CCCCC3)c2c1
0%[70.6 µM] | O=C(C[C@@H]1O[C@H](CNC(=O)c2cccc(F)c2)[C@@H](O)[C@H]1O)NCCN1CCOCC1
-1% | O=C(c1ccc(Br)o1)N1CCC2(CC1)CC(O)CCO2 (stereo unspecified)
-2% | Cc1ccc(C)c(S(=O)(=O)N(C)CC2CCOC2)c1 (stereo unspecified)
6% | O=C1[C@H]2CN(Cc3cc(Cl)ccc3F)C[C@H]2C(=O)N1CCN1CCc2ccccc2C1
1% | COCCn1ccc2ccc(C(=O)NC3CCCc4c3[nH]c3ccccc43)cc21 (stereo unspecified)
18µM* | O=C(Nc1ccccc1)c1nc2c(o1)CCN(Cc1ccc(F)cc1)CC2
3% | O=C1CCN(C(=O)c2cccnc2)CCCC(C(=O)N2CCN(c3ccc(F)cc3)CC2)CCN1 (stereo unspecified)
-4% | O=C(Cn1ccn2nc(-c3ccccc3)c(CO)c2c1=O)NCc1ccc(F)cc1F
-13% | O=C(c1cc(-c2ccccc2)n[nH]1)N1CCc2c(nc3cc[nH]n3c2=O)C1
3% | N#Cc1ccc(C(=O)N2CCC(c3n[nH]c(=O)n3-c3ccccc3)CC2)cc1
-9% | CCOc1cc(=O)n2c(c1C(=O)Nc1ccc(Br)cc1F)CCCC2
7% | O=C(O)COCC(=O)N[C@H]1CO[C@H]2[C@@H]1OC[C@@H]2n1nnnc1Oc1ccc(-n2cncn2)cc1
3% | CCOCc1nc(C2CCCN(C(=O)NC(C)C)C2)no1 (stereo unspecified)
3% | COc1ccc(Cn2c(C3CCN(C(=O)c4ccc(C)c(C)c4)CC3)n[nH]c2=O)cc1
18% | O=C(c1ccncc1)N1CCC(c2nc(C3CCOCC3)no2)C1 (stereo unspecified)
-28% | CCOC(=O)C1CCN(C(=O)CC2CCN(c3ccnc(OC)n3)CC2)CC1

# A few values from above.
# Result of CCc1nc2c(c(-c3ccc(O)cc3)n1)CN(Cc1ccccc1)CC2 under NPR1 antag: -3%[70.6 µM]
# Result of Cc1ccc(CN2CCOC[C@H]2c2nc(C(C)(C)C)co2)cc1 under NPR1 antag: -4%[70.6 µM]

# Next entries follow.
NPR1 antag | Compound
-23% | Cn1c(C(=O)NC2CCN(Cc3ccccc3)CC2)cc2c1CCN(Cc1ccccc1)C2
2% | COc1ccc(-c2cnc3n2CC(C(=O)N(C)C)CC3)cc1 (stereo unspecified)
4% | Cc1nc(CC(=O)N2C[C@@H](CN3CCCCCC3)[C@@H](CO)C2)cs1
5% | O=C(O)CN1CCCc2nc(-c3ccccc3)ncc2C1=O
4% | CCN1CCN(CCCN2CC3(CCN(c4ncccc4F)CC3)OC2=O)CC1
-14% | COc1cc(NC(=O)CCC2CCCN(Cc3nc(C(C)C)cs3)C2)cc(OC)c1 (stereo unspecified)
-2% | O=C(c1ccccn1)N1CCC(N(C(=O)NCCc2ccccc2)C2CCOCC2)CC1
? | CCC(=O)Nc1cnc(-c2ccc(C)cc2)nc1
-13% | COc1ccccc1CCC(=O)N1CCC2(CC1)NC(=O)N(c1cccc(F)c1)N2
? | O=C(c1cn(C/C=C/c2ccccc2)nn1)N1CCN(c2cccc(Cl)c2)CC1
-3%[70.6 µM] | N#CC1CCN(C(=O)c2nc(-c3ccccc3)c3ccccn23)CC1
4% | c1cnn(CC2CN(Cc3cc4n(n3)CCNC4)CCCO2)c1 (stereo unspecified)
6%[70.6 µM] | Cn1cc(CNC(=O)C[C@@H]2C[C@H]3O[C@H](CNC4Cc5ccccc5C4)[C@@H](O)[C@H]3O2)cn1
-2% | COc1ccc(CCC(=O)NC2CCc3nn(C)c(=O)n3CC2)cc1OC (stereo unspecified)
? | COc1ccc(CN2C[C@H]3CN(Cc4ccc(C(F)(F)F)cc4)CCN3C2=O)cc1

# 3 structures from above, ordered by molecular weight, rising.
NPR1 antag | Compound
5% | O=C(O)CN1CCCc2nc(-c3ccccc3)ncc2C1=O
4% | c1cnn(CC2CN(Cc3cc4n(n3)CCNC4)CCCO2)c1 (stereo unspecified)
4% | Cc1nc(CC(=O)N2C[C@@H](CN3CCCCCC3)[C@@H](CO)C2)cs1

# Next section:
NPR1 antag | Compound
-8% | N#Cc1cccc(NC(=O)N[C@H]2[C@H](O)[C@@H](N3CCC(Cc4ccccc4)CC3)[C@@H]3OC[C@H]2O3)c1
-3%[70.6 µM] | Cc1cc2nc(CO[C@H]3CN(Cc4ccc(C(=O)O)cc4)C[C@H]3F)[nH]c2cc1C
-8% | CCCN(CC1CCOC1)C(=O)Nc1cccc(CC)c1 (stereo unspecified)
1%[122 µM] | COC[C@H]1C[C@@H](N(C)C)[C@H](O)[C@@H]1O
0% | CCn1cc(CN(C)Cc2ccccc2)ccc1=O
-1%[70.6 µM] | Cc1noc(C)c1CN[C@@H]1CCC[C@@H](C(=O)N2CCN(C)CC2)CC(=O)N(C)C1
-1% | CCOCC(=O)N1C[C@@H]2CCCN3CCC[C@@H]([C@H]23)[C@H]1CCCC(=O)NCC1CC1
-21% | COCCC(=O)N1CCC2(CC1)CC(Cc1nc(-c3ccncc3)no1)CCO2 (stereo unspecified)
1% | COc1ccccc1OCCNC(=O)C1CC(=O)N(c2n[nH]c3ccccc23)C1 (stereo unspecified)
8% | Cc1cn2nc(C(=O)N3CCCC3)cc2c(N2CCSCC2)n1
4% | CCOCC(=O)N[C@@H]1c2ccccc2C2(CCNCC2)[C@H]1OC
3% | CC(C)c1cc(C(=O)N[C@@H]2COCC[C@@H]2OCc2ccccn2)nc(N)n1
-15% | CC(C)(C)c1ccc(C(=O)Nc2ccc(C(O)[C@H]3COCC(=O)N3Cc3ccccn3)cc2)cc1 (stereo partly specified)
1% | COc1cc2c(cc1OC)C(CNC(=O)c1cccs1)N(C(=O)Nc1ccccc1F)CC2 (stereo unspecified)
5%[70.6 µM] | CC(=O)NC[C@H]1O[C@@H](CC(=O)NC(C)C)[C@H](O)[C@@H]1O
-25% | O=C(Cc1ccc(F)cc1)N1CCC2(CCC(=O)N(CC3CC3)CC2)CC1
2% | CC(C)CN1C(=O)C(C)(C)[S+](=O)([O-])[C@H]2CN(c3ccc(Oc4ccccc4)cc3)C[C@@H]21
0% | CCc1ccc(NC(=O)C2CCN(C(=O)c3nnn4c3COC(c3ccc(OC)cc3)C4)CC2)cc1 (stereo unspecified)
7% | c1coc(-c2noc(CCCc3nc(C4CCOC4)no3)n2)c1 (stereo unspecified)
1%[70.6 µM] | CN1[C@@H](CCC(=O)N2CCN(c3ccccc3)CC2)CNC(=O)[C@H]2NCC[C@H]21
-8% | NC(=O)c1cc2c(nc1CC1CC(=O)N(c3ccccc3)C1)CCC2 (stereo unspecified)
0% | CO[C@H]1C(=O)N(C(C)C)[C@H]1C1CCN(C(=O)Cn2ccc(C)n2)CC1
0% | COc1ccccc1CNC(=O)[C@H]1CN(C(C)C)C[C@H]1C(=O)O

# NPR1 antag: what is marked active above
NPR1 antag | Compound
13µM* | CCc1cccc(OCC(=O)c2ccc3c(c2)N(CC(=O)N(C)Cc2ccccc2)C(=O)CO3)c1
18µM* | O=C(Nc1ccccc1)c1nc2c(o1)CCN(Cc1ccc(F)cc1)CC2

# Bioassay records deposited in PubChem by National Center for Advancing Translational Sciences (NCATS).
